KSHV LANA nucl = inhibitors of KSHV LANA binding to nucleosomes; z-score (test concentration not listed); actives 0.3% (n = 51,000); FITC-LANA1-23 / chicken nucleosome fluorescence polarization; active compounds read low; AID 720717;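 active = both repeat wells score below -2 in polarization z-score versus plate sample wells, excluding overly bright wells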;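 note: 100 nL library stock added to about 30 µL; numbers are from one replicate; some results filed as inactive read as strong as hits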
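Assay system: FITC-LANA peptide and chicken nucleosomes; input: 240 nM purified chicken nucleosomes (480 nM peptide binding sites), final; also added: 50 nM FITC-LANA1-23 probe; medium: TEN-BT buffer, pH 7.5; doses: pin-transferred compound, 100 nL; times: 10–45 min, room temperature; technique: fluorescence polarization; replication: duplicates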
Ab BasE inh = BasE siderophore biosynthesis inhibition | purified BasE, fluorescence polarization binding displacement | inhibition, % (concentration not given with the values) | actives 0.1% (n = 84,000) | AID 485350;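 active = both replicates above 25% with normal brightness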;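 note: 0% = negative plate control signal and 100% = positive plate control signal; stock transfer was 100 nL into about 30 µL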
Active calls of the source: *; . = not tested or not shown; & = joins results of further samples. A portion of the library, so the mix of outcomes need not match the whole.

SMILES	KSHV LANA nucl	Ab BasE inh
NC(=O)C1CC(O)CN1c1nc(-c2cccnc2)nc2ccccc12 (configuration not stated)	.	3.2
COc1ccc(/C=N/c2oc(-c3cccs3)c(-c3cccs3)c2C#N)cc1	.	3.0
CC(=O)NS(=O)(=O)c1ccc(N2C(=O)CC(Sc3nccc(C)n3)C2=O)cc1 (configuration not stated)	.	0.6
COc1ccc(OC)c(NC(=O)/C=C/c2ccc(S(=O)(=O)N3CCOCC3)cc2)c1	.	2.0
CC(=O)Oc1ccc(C2OC(=O)c3ccccc3N2C(C)=O)cc1 (configuration not stated)	.	-2.1
O=C(Oc1ccc2ccccc2c1)C1c2ccccc2Oc2ccccc21	.	1.4
CC(C)(C)CC(C)(C)NC(=O)Nc1ccc(F)cc1	2	1.0
O=C(c1cnn(C(=S)NCCN2CCOCC2)c1)c1ccccc1O	.	1.4
CSc1ccccc1NC(=O)CSc1nc2ccc(C)cc2[nH]1	.	0.8
CCOC(=O)C1=C(N2CCOCC2)CC(c2ccccc2)(C(F)(F)F)NC1=O (configuration not stated)	.	-0.4
COC(=O)C1=C(C)N(c2ccc(F)cc2)/C(=C/c2ccco2)C1=O	.	0.5
CN(CC1COc2ccccc2O1)C(=O)/C=C/c1ccc(S(=O)(=O)NCc2ccco2)cc1 (configuration not stated)	.	2.1
O=c1cc(CN2CCc3ccccc3C2)occ1OCc1ccc(F)cc1	1.3	-2.0
Cn1[nH]c(C(F)(F)F)cc1=O	-0.5	.
O=C(NC1CC(O)c2cc3c(cc21)OCO3)C(F)(F)F (configuration not stated)	0.46	.
CCOC(=O)CC(N)=S	.	-1.1
CCCCNC(=O)c1ccc2c(=O)n(Cc3ccco3)c(=S)[nH]c2c1	0.6	-1.8
CN(CC(=O)Nc1ccc(Cl)c(Cl)c1)CC(=O)N1CCNC1=O	.	-1.0
COc1ccc(OCC(O)CNS(=O)(=O)c2ccc(NC(C)=O)cc2)cc1 (configuration not stated)	-0.2	-1.1
COc1cc2nc(CNCCCN3CCCC3=O)[nH]c(=O)c2cc1OC	.	0.5
O=C(Oc1ccc2cc(-c3nc4ccccc4s3)c(=O)oc2c1)c1ccco1	.	-4.0
COC(=O)CN1C(=O)Nc2ccc(C)cc2C1c1ccccc1 (configuration not stated)	-0.62	1.5
NC(=O)c1ccc(NC(=O)COC(=O)CCN2C(=O)c3ccccc3C2=O)cc1	.	-1.2
COc1ccc(NC(=O)CNC(N)=O)cc1NS(=O)(=O)c1ccc(F)cc1	.	-0.9
CCN(CC)S(=O)(=O)c1ccc2oc(Nc3ccccc3)nc2c1	.	1.2
O=S(=O)(NCC1COC2(CCCCC2)O1)c1ccc(Cl)s1 (configuration not stated)	-0.88	1.1
C=C(c1ccc(C(=O)O)cc1)c1cc2c(cc1C)C(C)(C)CCC2(C)C	-0.14	.
Cc1cc(=O)[nH]c(SCC(=O)Nc2ccccc2C#N)c1C#N	.	0.7
CS(=O)(=O)N(Cc1ccccc1)c1ccc(C(=O)NCCSc2ccccn2)cc1	.	-2.1
O=S(=O)(c1cccc(C(F)(F)F)c1)N1CCN(c2ncccn2)CC1	-0.38	4.5
Cc1ccc(NC(=O)c2nc[nH]c2C(=O)N2CCCCC2)c(C(=O)c2ccccc2)c1	0.59	-0.3&2.4
O=C(Cn1nc(-c2ccco2)ccc1=O)Nc1cccc2ccccc12	-0.82	0.1
CSc1nc2c(cnn2-c2ccc(C)cc2)c(=O)[nH]1	-0.035	1.3
N#C/C(C(=O)N1CCCC1)=c1/s/c(=C\c2ccc(-c3ccc(S(N)(=O)=O)cc3)o2)c(=O)n1-c1ccccc1	.	18
NC1=CC(=O)CCC1	.	-0.6
O=C(/C=C/c1ccc2c(c1)OCO2)OCC(=O)N1CCOCC1	.	1.3
CCS(=O)(=O)c1ccc(I)s1	0.0025	-3.7
NC(=S)NN=C1C2CC3CC(C2)CC1C3	.	1.8
COC(=O)c1sccc1Oc1ccc(C(F)(F)F)cc1NC(=O)c1ccccc1OC	.	4.1
Cc1cc(=O)oc2cc(NC(=O)c3cccc(S(=O)(=O)N4CCCC4)c3)ccc12	.	-1.2
CN(C1CCCCC1)S(=O)(=O)c1ccccc1NC(=O)COc1ccccc1C#N	.	0.9
CCOc1ccc(-c2nc3ncccn3c2NCc2ccccc2OC)cc1OC	-1.1	-15
Cc1n[nH]c(=O)c2c1nnn2Cc1ccc(F)cc1	0.11	-2.6
O=C(CN1CCCC1c1ccc2c(c1)OCCCO2)Nc1ccc(S(=O)(=O)N2CCCCC2)cc1 (configuration not stated)	.	-1.1
Cc1n[nH]c(=S)n(/N=C/c2cccs2)c1=O	-0.081	3.0
Cc1ccc(C)c(NC(=O)CN(C)C(=O)COc2ccccc2C#N)c1	.	1.5
Cc1ccccc1NCN1C(=O)C2=C(CCCC2)C1=O	0.54	2.4
O=C(Nc1nc(-c2ccccc2)cs1)c1ccc(S(=O)(=O)N2CCCCC2)cc1	.	3.3
COc1ccc(C(=O)Nc2ccc(NC(=O)c3ccco3)c(Cl)c2)cc1Br	-0.38	-1.0
CC(C)C(NC(=O)c1ccccc1)C(=O)O (configuration not stated)	0.069	-2.6

Further records
SMILES	KSHV LANA nucl	Ab BasE inh
COc1cc2c(cc1OC)C(c1ccccc1)N(C(=O)S(C)(=O)=O)CC2 (configuration not stated)	.	-0.4
CCN(CC)C(=O)C1CCCN1S(=O)(=O)c1cccc2nsnc12 (configuration not stated)	.	2.4
Cc1ccc2c(c1)c1nnc(SCC(=O)N3CCCCC3C)nc1n2C (configuration not stated)	-0.069	1.6
CCOC(=O)c1c(OCC)[nH]c2ccc(O)cc12	0.35	3.8
Cc1ccc(S(=O)(=O)c2ccc(Cl)cc2)cc1S(=O)(=O)N1CCCC1	.	1.0
O=C(c1cn(Cc2ccccc2Cl)nc1-c1ccccc1)N1CCN(C2CCS(=O)(=O)C2)CC1 (configuration not stated)	.	-0.9
CCOc1ccc(CN(C)CC(=O)NC2CC2)cc1OC	.	-0.5
COc1cc(C(=O)Nc2ccc(N3CCOCC3)cc2)cc(CN2C(=O)c3ccccc3C2=O)c1OC	.	1.1
CCN(CC)c1nc(N)c(C#N)c(C(C#N)Cc2ccccc2)c1C#N (configuration not stated)	.	-0.9
CC(C)N(Cc1ccccc1)C(=O)Nc1ccc(C(F)(F)F)cc1	.	1.5
N#CCCSc1ccccc1NC(=O)c1ccc2ncsc2c1	-0.81	1.9
O=C(c1ccc(Cl)cc1Cl)N1CCCC1c1ccc(F)cc1 (configuration not stated)	0.75	.
NNC(=O)c1cc(CSc2ccc(Cl)cc2)on1	.	-2.1
COc1cc2c(cc1OC)C1=C(C#N)CCC(=NC(=O)c3ccco3)N1CC2	0.18	1.6
Cc1cccc(NC(=O)CN2C(=O)c3ccccc3S2(=O)=O)n1	-0.19	1.8
CCOC(=O)C(CC)Sc1nnc(-c2ccc(C)cc2)n1C (configuration not stated)	0.64	3.2
CS(=O)(=O)c1ncc(CO)n1Cc1ccccc1	-1.1	-1.4
COc1ccc(-c2nnc3n(CCc4ccccc4)c(=O)c4ccccc4n23)c(O)c1	-0.75	1.5
Oc1nc(-c2ccc(Br)cc2)n2ccncc12	.	-5.0
Cc1nn(C(=O)c2ccccc2)c2c1C(=O)CC(C)(C)C2	0.43	1.8
CN(C)c1oc(-c2ccccc2F)nc1C#N	0.008	3.1
COC(=O)c1cc(-c2cccc(OC)c2)on1	.	3.4
CCn1nnc2cc(C(=O)NC(C)c3ccc(Cl)cc3)ccc21 (configuration not stated)	.	-2.3
Cc1noc(NS(=O)(=O)c2ccc(N)cc2)c1C	0.48&-0.095	1.6
O=C(CN(Cc1ccco1)S(=O)(=O)/C=C/c1ccccc1)Nc1ccc2c(c1)OCO2	.	0.5
CCOC(=O)c1cccc(Nc2nc(-c3ccccc3)no2)c1	0.53	-1.6
CC(c1nnc(-c2ccccc2)o1)N1CCC(c2nc3ccccc3s2)CC1 (configuration not stated)	.	-1.9
Cn1cc(SCC(=O)NCc2ccc3c(c2)OCO3)c2ccccc21	-0.14	0.6
Cn1c(=O)c2c(nc(Sc3nnc(N)s3)n2C)n(C)c1=O	.	3.1
Cc1ccc(OCc2nc(-c3ccc(C(=O)N4CCc5ccccc54)cc3)oc2C)cc1	-1.2	0.7
O=C(CSc1nnnn1C1CCCC1)N(c1ccccc1)C1CCCCC1	.	-0.2
O=S1(=O)CC(O)C(NC2CCNCC2)C1 (configuration not stated)	-0.13	0.5
O=C(OCc1ccccc1Cl)c1cccnc1Cl	.	9.3
Cc1csc(SC(C)C(=O)N2CCCc3ccccc32)n1 (configuration not stated)	.	-1.5
CSc1ccccc1C(=O)OCC(=O)Nc1ccc2[nH]c(=O)[nH]c2c1	.	-4.9
COC(=O)c1sc2cc(NC(=S)Nc3ccn(C)n3)ccc2c1Cl	-1.6	0.5
CCn1c(=O)c2ccccc2n(CC(=O)c2ccc(C)cc2)c1=O	-0.86	-0.8
COC(=O)c1ccc(OC)c(CN2CCN(Cc3ccc(C)cc3)S2(=O)=O)c1	.	-1.1
Cc1noc(C)c1CSc1ncccc1C(=O)NC1CCCc2ccccc21 (configuration not stated)	.	-1.0
Ic1ccc(Nc2nc3nonc3nc2N2CCCCC2)cc1	.	5.0
Cc1oc(C(C)(C)C)cc1C(=O)Nc1ccc(C(F)(F)F)c(C#N)c1	-0.12	-0.7
Cc1ccccc1Nc1nc(N)nc(Cn2cnc3sc4c(c3c2=O)CCC4)n1	.	0.0
C=CCN(C(=O)c1sc2nc(CSC)[nH]c(=O)c2c1C)c1nc2c(s1)CCCC2	.	-3.6
Cc1cccc(C(=O)OC(C)c2nnc(-c3ccccc3)o2)c1O (configuration not stated)	.	0.2
N#Cc1nnn2c1nc(N)c1c(F)cccc12	0.34	0.5
CCN(CC1COc2ccccc2O1)C(=O)c1cccc(N(C)C)c1 (configuration not stated)	.	1.7
CCCCOc1ccc(OCCCN2CCOCC2)cc1	-0.38&0.0015&-0.49	-1.1&-1.2
COc1ccccc1-c1noc(CCC(=O)O)n1	-1.4	-0.6
Oc1cccc(C(c2ccc3cccnc3c2O)N2CCCC2)c1 (configuration not stated)	.	-1.4
O=C(OCC(=O)N1CCCc2ccccc21)c1cc(S(=O)(=O)N2CCOCC2)ccc1O	.	1.7

New compounds follow
SMILES	KSHV LANA nucl	Ab BasE inh
Cc1ccc(NS(=O)(=O)c2ccc(CN3C(=O)c4cccnc4C3=O)s2)nc1	-0.39	2.8
O=C(Cn1c(-c2cccs2)cc2ccccc21)NCCc1ccccc1	-0.9	-1.3
CC(C)CCNc1nccn(-c2ccc(Cl)cc2)c1=O	0.19	-0.5
CCOc1cc(CNC(CC)CO)c(Br)cc1OCC(N)=O (configuration not stated)	0.0005	2.2
COc1ccc2c(c1)C(C)CC(C)(C)N2C(=O)Nc1ccc(Cl)cc1 (configuration not stated)	.	0.6
CC(C)(C)c1ccc(S(=O)(=O)N2CCNC(=O)C2)cc1	.	0.1
Cc1cc(C)cc(N/C(N)=N\c2nc(C)cc(C)n2)c1	0.1	-2.6
C[C@H](NC(=O)c1ccc(Br)cc1)C(=O)O	.	0.1
COc1ccc(OC)c(S(=O)(=O)c2ccc(Br)cc2)c1	.	1.3
O=C(O)CC1(CC(=O)N2CCCC2)CCCCC1	.	0.9
O=C1CCCC/C1=C/Nc1nc(-c2ccccc2)cs1	.	3.6
N#Cc1ccc(NC(=O)[C@@H]2CCCN2C(=O)c2cccs2)cc1	.	-0.8
O=c1[nH]n(CCO)c(=O)c2ccccc12	0.4	2.3
CC(C)Nc1nccs1	.	2.0
CC(C)(C)NC(=O)CSc1n[nH]c(-c2cccs2)n1	.	-1.4
Oc1[nH]c2ccccc2c1C=Nc1ccc2c(c1)CCC2	0.92	0.8
CC(=O)N1CCOc2ccc(S(=O)(=O)N(C)c3cccc(C)c3)cc21	2.4	-0.9
CCC(C(=O)NC(C)c1ccc2c(c1)OCO2)c1ccccc1 (configuration not stated)	0.65	-2.1
O=C(COC(=O)c1ccccc1)c1ccccc1	-2.2	-3.0
COCCNC(=O)CN1CCC(c2ccc(OC)cc2)C(O)C1 (configuration not stated)	-0.27	-0.4

Source: PubChem BioAssay
